# CDC25B-CDK2 inh: human CDC25B-CDK2/CyclinA binding inhibition; P30305+P24941; HTRF CDC25B-CDK2/CyclinA binding, anti-His/anti-Flag; hits give high values; z-score (concentration not given with the values); actives 0.72% (n = 94,000); AID 1259370;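 note: score is relative to mean and SD of negative controls; strong numbers were not always called active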
# HIV TAR-Tat: HIV-1 TAR-Tat binding disruption. HIV-1 TAR RNA, Tat peptide displacement FRET; hits give high values. z-score (test concentration not listed). actives 0.6% (n = 100,000). AID 1259389;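 note: score is relative to mean and SD of negative controls; some compounds called inactive have numbers as strong as hits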
# Starred values were filed as active, the others as inactive; x = no result given.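 Rule for the calls: active = z-score from 3 up in half or more of its runs; inactive = the rest.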
SMILES,CDC25B-CDK2 inh,HIV TAR-Tat
O=C(Cc1csc2ccccc12)Nc1ccc(F)cc1,-4.6,x
Cc1ccc(Nc2nc(NCc3ccco3)c3ccccc3n2)cc1,0.46,x
CCC(Sc1nnc(CSc2nc(C)cc(C)n2)n1-c1ccccc1)C(=O)OC (centres undefined),-1.3,0.3
COc1ccc(COC(=O)C2=C(C)NC3=C(C(=O)CC(C)(C)C3)C2c2coc3ccccc3c2=O)cc1 (centres undefined),-1.1,1.3
O=C(CSc1nc(-c2ccccc2F)nc2cc(=O)[nH]n12)NCCc1ccccc1,x,0.34
O=C(CN1C(=O)CSc2ccc(S(=O)(=O)N3CCCC3)cc21)NCc1ccccn1,x,0.78
COc1ccc(OC)c(Nc2ncc3c(n2)CCN(Cc2cc(Br)cs2)C3)c1,x,2.3
CCOC(=O)c1sc2nc(C)cc(C)c2c1N(C(C)=O)C(C)=O,-1.1,0.37
Cc1nn(CC(=O)N2CCC(N3CCCCC3)CC2)c(=O)c2noc(C)c12,x,-0.01
Cn1nnnc1SCCCNCc1ccc(OCc2ccc(Cl)cc2)cc1,-0.49,0.65
COc1ccc(Nc2nc3ccc(Cl)cc3n3cnnc23)cc1,-1.4,1.4
COCCNC(=O)C1(C)CCC(=O)N1Cc1cccs1 (centres undefined),x,0.82
COc1ccc(/C(O)=C2\C(=O)C(=O)N(Cc3ccncc3)C2c2cccc(Oc3ccccc3)c2)cc1 (centres undefined),-1.6,0.18
COc1ccc(OCC(=O)Nc2onc3c2CCCC3)cc1,-1.4,0.61
Cc1ccc2nc(-c3ccncc3)c(NC3CCCC3)n2c1,-1.4,-2
O=C(CCCn1c(=O)c2cccn2c2ccc(F)cc21)NCc1ccc2c(c1)OCO2,x,0.59
Cn1c(=O)c(-c2nc(-c3ccccc3)cs2)cn(-c2ccccc2)c1=O,-1.1,x
Nc1c(N2CCCC2)c2ccccc2oc1=O,-1.4,x
CCOc1ccc2nc(NC(=O)c3nc(S(C)(=O)=O)ncc3Cl)sc2c1,-3.2,0.93
Cc1nn2c(N)cc(-c3ccccc3)nc2c1-c1ccccc1,-0.39,-2
CCOC(=O)c1c(NC(=O)c2nn(-c3ccc(OCC)cc3)ccc2=O)sc2c1CCC2,1.4,0.12
CSc1cccc(NC(=O)C2CCN(c3ccc(-c4cccs4)nn3)CC2)c1,x,0.05
O=S(=O)(c1ccc2nc(N3CC=C(c4ccccc4)CC3)ccc2c1)N1CCCC1,x,1.3
CCc1ccc2[nH]c(C)c(CN(C)C3CCN(C)CC3)c(=O)c2c1,-1.4,x

# A section from the list above, for reference:
SMILES,CDC25B-CDK2 inh,HIV TAR-Tat
CCC(Sc1nnc(CSc2nc(C)cc(C)n2)n1-c1ccccc1)C(=O)OC (centres undefined),-1.3,0.3
COc1ccc(COC(=O)C2=C(C)NC3=C(C(=O)CC(C)(C)C3)C2c2coc3ccccc3c2=O)cc1 (centres undefined),-1.1,1.3
O=C(CSc1nc(-c2ccccc2F)nc2cc(=O)[nH]n12)NCCc1ccccc1,x,0.34
O=C(CN1C(=O)CSc2ccc(S(=O)(=O)N3CCCC3)cc21)NCc1ccccn1,x,0.78
COc1ccc(OC)c(Nc2ncc3c(n2)CCN(Cc2cc(Br)cs2)C3)c1,x,2.3
CCOC(=O)c1sc2nc(C)cc(C)c2c1N(C(C)=O)C(C)=O,-1.1,0.37
Cc1nn(CC(=O)N2CCC(N3CCCCC3)CC2)c(=O)c2noc(C)c12,x,-0.01
Cn1nnnc1SCCCNCc1ccc(OCc2ccc(Cl)cc2)cc1,-0.49,0.65
COc1ccc(Nc2nc3ccc(Cl)cc3n3cnnc23)cc1,-1.4,1.4
COCCNC(=O)C1(C)CCC(=O)N1Cc1cccs1 (centres undefined),x,0.82
COc1ccc(/C(O)=C2\C(=O)C(=O)N(Cc3ccncc3)C2c2cccc(Oc3ccccc3)c2)cc1 (centres undefined),-1.6,0.18
COc1ccc(OCC(=O)Nc2onc3c2CCCC3)cc1,-1.4,0.61
Cc1ccc2nc(-c3ccncc3)c(NC3CCCC3)n2c1,-1.4,-2
O=C(CCCn1c(=O)c2cccn2c2ccc(F)cc21)NCc1ccc2c(c1)OCO2,x,0.59
Cn1c(=O)c(-c2nc(-c3ccccc3)cs2)cn(-c2ccccc2)c1=O,-1.1,x
Nc1c(N2CCCC2)c2ccccc2oc1=O,-1.4,x
CCOc1ccc2nc(NC(=O)c3nc(S(C)(=O)=O)ncc3Cl)sc2c1,-3.2,0.93
Cc1nn2c(N)cc(-c3ccccc3)nc2c1-c1ccccc1,-0.39,-2
CCOC(=O)c1c(NC(=O)c2nn(-c3ccc(OCC)cc3)ccc2=O)sc2c1CCC2,1.4,0.12

# Next structures.
SMILES,CDC25B-CDK2 inh,HIV TAR-Tat
CN1CCN(C(c2cccs2)c2ccc3cccnc3c2O)CC1 (centres undefined),-1.8,-0.42
O=C(CSC1=NS(=O)(=O)c2ccccc2N1)Nc1cccc(Cl)c1,x,1.2
CCN(CC)CCCNC(=O)C(C)n1c2ccccc2c2nc(=O)cc(C)n21 (centres undefined),-2.5,1.3
Cc1ccc(C(C)C)c(OCC(O)CN2CCC(C)CC2)c1 (centres undefined),-1.5,x
O=C(Cc1ccccc1)Nc1nnc2n1CCCS2,x,0.9
N#Cc1ccc(Cn2c(=O)n(Cc3ccccc3Cl)c(=O)c3cccnc32)cc1,-2.3,x
O=C(NCC1CCCO1)c1ccc2c(c1)N(Cc1ccc(F)cc1)CCS2 (centres undefined),-2.6,-1
CCCSc1nc2ccccc2n1CC(=O)O,-2.7,2.1
CCOC(=O)C(CCC#N)(CCC#N)C(C)=O,-2.6,x
COCc1cc(C)nc2sc(C(=O)Nc3nccs3)c(N)c12,-0.56,1.6
Cc1nn(-c2nc3ccc(Br)cc3s2)c2c1C(c1ccccc1Cl)CC(=O)N2 (centres undefined),x,0.8
O=C(CCc1ccccc1)Nc1nc2nc(-c3ccccc3)cc(=O)n2[nH]1,-1.8,1.4
Nc1ncc2c(n1)CC(c1ccccc1)CC2=O (centres undefined),-2.3,-0.6
Cc1ccc(C2c3c(oc4ccccc4c3=O)C(=O)N2c2ccccn2)cc1 (centres undefined),-0.71,1.2
Cc1ccc(CNc2nc3nc(C)cc(=O)n3[nH]2)cc1,-1.2,3.1
CCON1C(=O)c2ccccc2C1=O,-0.88,x
Cc1cc(C(=O)O)c(C)n1-c1ccc(N2CCOCC2)nc1,x,-0.93
Cc1ccccc1C1CC(=O)Nc2c1cnn2-c1nc2ccccc2s1 (centres undefined),x,1.4
Cn1c2c(c(=O)n(C)c1=O)C(c1cccc(O)c1)CC(=O)N2 (centres undefined),-1.4,2
O=C(O)CSCc1csc2c1CCCC2,x,1.1
O=C1c2ccccc2C(=O)C1c1nccc2ccccc12,0.24,-0.07
Cc1cc(NS(=O)(=O)NC(C)(C)C)no1,-0.79,x
CN1C(=O)C2(/C(=C(/O)c3ccc(Cl)cc3)C(=O)C(=O)N2CCN2CCOCC2)c2ccccc21 (centres undefined),-0.15,-0.44
COc1ccccc1C(=O)CC1(O)C(=O)Nc2ccc(F)cc21 (centres undefined),x,0.54
O=C(c1cc(-c2ccc(Cl)cc2)on1)N(Cc1ccco1)Cc1ccco1,2.6,1.5
Cc1c(-c2ccccc2)sc(N)c1C#N,-1.9,x
O=c1[nH]c2cc(-c3noc(CNS(=O)(=O)c4ccccc4)n3)ccc2n1C1CCCC1,x,1.5
COC(=O)c1cc2sccc2n1Cc1ccc(C)cc1,-0.52,x
O=C(CS(=O)(=O)c1cccc2nsnc12)Nc1ccc(F)c(F)c1,x,1.7
CCCCSc1nc2n(n1)C(c1ccc(OCC)c(OC)c1)C1=C(CC(C)(C)CC1=O)N2 (centres undefined),-2.5,0.24
COc1ccc(Cl)cc1NS(=O)(=O)c1ccc2c(c1)NC(=O)C(C)CS2 (centres undefined),x,1.4
NC(=O)c1c(NC(=O)c2ccc(-c3nc4ccccc4s3)s2)sc2c1CCC2,x,-0.15
O=C(CN1C(=O)c2cccnc2Oc2ccc(Cl)cc21)NCc1cccs1,x,0.08
CC(/C=C/c1ccccc1)=N\OC(=O)NC(C)C,0.44,x
CNC(=O)C(=O)NCC(c1cccs1)S(=O)(=O)c1ccc(Cl)cc1 (centres undefined),x,1.3
CCOc1cc(C2C(C(=O)OCC3CCCO3)=C(C)NC3=C2C(=O)CC(C)(C)C3)cc(Cl)c1O (centres undefined),-1.9,1.6
Cc1cc(C)c2ccc(NC(=O)c3ccc(C(F)(F)F)cc3)nc2n1,-2,x
COC(=O)Cn1c2ccc(Br)cc2c2nc3ccccc3nc21,1.7,x
CC(C)c1ccc(NS(=O)(=O)c2ccc(-c3ccc(=O)[nH]n3)o2)cc1,x,0.97
CCN(CC)CCNC(=O)c1ccc2c(c1)NC(=O)CS2,-1.2,x
O=C(CCSc1nnc2ccccn12)Nc1nc(-c2ccccc2)ns1,-0.63,0.46
c1ccc(CN2CCN(Cc3ccccc3)C2c2cccnc2)cc1,-1.8,4
Cc1nnc(Nc2ccccc2)[nH]c1=O,-1.1,-0.2
COc1cccc(Cc2nnc(-c3ccc(-c4cccs4)s3)o2)c1,-0.84,x
COc1ccc(S(=O)(=O)NC(C)c2nc(-c3ccc(C(C)(C)C)cc3)no2)cc1 (centres undefined),0.94,2.4
CN1CCc2c(c3ccccc3n2Cc2ccccc2)C1,1.1,1.7
CC(=O)Nc1ccc(NC(=O)C2COc3ccccc3O2)cc1 (centres undefined),2.5,x
CC(=O)Oc1cccc(N2C(=O)C3C4C=CC(CC4)C3C2=O)c1 (centres undefined),-1.1,1.2
COc1ccc(CN2CCN(Cc3c[nH]c4ccccc34)CC2)c(OC)c1,-0.38,0.41
CC(C)Oc1ccc(CN2CCc3nc(N4CCOCC4)ncc3C2)cc1,x,0.81
Cc1nc(C(F)(F)F)ccc1NC(=O)NCCNc1nccc(C(F)(F)F)n1,-1.4,x
CN(CC(=O)N1CCc2ccccc2C1)c1cc2c(cc1Cl)NC(=O)CO2,x,1.7
COC(=O)CN1C(=O)c2ccccc2S1(=O)=O,-3,x
CC(=O)Oc1ccc(Br)cc1C1OC(c2cc(C3CC3)nc3ccccc23)=NN1C(C)=O (centres undefined),x,1.2
Cc1ccc(C(=O)Nc2sc3c(c2C(=O)NCC2CCCO2)CCCC3)cc1 (centres undefined),1.7,-0.57
CCCCCC[C@@H]([C@@H](C)O)n1cnc2c(N)ncnc21,-1,1.6
CCOC(=O)C1CCN(C(=O)Cn2nc(CC)n3c(cc4sc(C)cc43)c2=O)CC1,-1.2,0.42
CC(C)Oc1ccc(C2Nc3ccccc3S(=O)(=O)N2Cc2ccccc2)cc1 (centres undefined),-1.1,x
CCC(Sc1nc(-c2ccccc2)[nH]c1S(=O)(=O)c1ccc(C)cc1)C(=O)O (centres undefined),-0.83,-2.2
Cc1cc(=O)n2nc(N3CCCC3C(=O)NCCC3=CCCCC3)sc2n1 (centres undefined),1.5,1.4
# Following part:
SMILES,CDC25B-CDK2 inh,HIV TAR-Tat
O=C(O)C1CC(C2CCCCN2)CN2CCCCC12 (centres undefined),x,-1.2
Cn1cc(NC(=O)N2CCOCC2)c2ccccc2c1=O,x,-0.9
CC1CCCC(Nc2ncnc3onc(-c4ccc(F)cc4)c23)C1C (centres undefined),x,1.4
CCCOc1ccc(C2c3c(oc4ccccc4c3=O)C(=O)N2c2nnc(C)s2)cc1OCC (centres undefined),0.06,0.42
Cc1ccc(CSc2nc3nc[nH]c3c(=O)[nH]2)cc1,-1,0.33
Cn1cc(NC(=O)Nc2ccc3c(c2)OCO3)c2ccccc2c1=O,x,0.52
Cc1cccc(OCCSc2nc3ccccc3n2C)c1,1.5,1.4
CCCc1c(C(=O)OCC)nnc2c(-c3ccc(Br)cc3)c(C)nn12,-0.71,-0.9
Cc1oc2ccc(O)cc2c1C(=O)N(C)C,x,2.8
Cc1ccc(OCc2nc3ccc(F)cc3[nH]2)cc1C,-0.78,1.6
CCCC(CCC)C(=O)Nc1c(C)nc2ccccn2c1=O,x,1.8
Cn1cc(S(=O)(=O)CC(=O)N2CCOCC2)c2ccccc21,-0.54,x
CN(C1=NC(=O)C(CC(=O)O)S1)c1ccc(O)cc1 (centres undefined),-2.2,x
COc1ccc(C(=O)Nc2ccccc2)cc1OC,-2.2,x
O=C(Nc1nnc2n1CCCS2)c1ccc(F)cc1,x,1.3
CC1CCN(CCCCOc2ccccc2F)CC1,-0.6,0.33
CCC1CN(C(=O)NCCC(C)C)c2cc(Cl)ccc2O1 (centres undefined),x,0.12
CCCOC(=O)COc1ccc2c(=O)c(Oc3cc(C)ccc3C)coc2c1,-1.2,x
COc1ccc(NC(=O)C(C)SC2=Nc3ccccc3C3=NC(C)C(=O)N23)cc1 (centres undefined),x,-0.85
O=C(NCc1ccc2c(c1)OCO2)c1ccc2c(c1)nc1n2CCOC1,x,0.2
COc1ccc(C2c3c(oc4cc(C)c(C)cc4c3=O)C(=O)N2c2ccc(C)cn2)cc1OC (centres undefined),-3,-0.63
Cc1cc(Nc2cc(C(F)(F)F)nc3c(Cl)cccc23)on1,-2,x
Cc1cc(C)c(CSc2ncnc3nc[nH]c23)c(C)c1,-0.69,2.5
N#Cc1c2c(c(Sc3nc4ccccc4[nH]3)n3c1nc1ccccc13)CCCC2,-2.4,x
CC1CCCC(NC(=O)CCS(=O)(=O)c2ccc3c(c2)NC(=O)CS3)C1C (centres undefined),x,-1.8
O=C(O)CSCC(=O)Nc1ccc(C(F)(F)F)cn1,-2.1,x
CN(C)c1nc(OCCNC(=O)Nc2ccccc2)nc(N2CCOCC2)n1,0.91,0.37
COC(=O)C1=C(C)Nc2nc3ccccc3n2C1c1cccs1 (centres undefined),-0.57,-1.2
Fc1cccc(CN2CCN(c3ccccn3)CC2)c1,x,1
CCCc1nn2c(=O)cc(COc3ccc(NC(=O)C(CC)CC)cc3)nc2s1,-0.89,1.4
Cc1cc2n(n1)CCCN2CC(=O)NCc1ccc(C)o1,x,1.2
CCCn1cc(S(=O)(=O)c2ccc(OC)cc2)c(=O)c2cc(Cl)ccc21,0.41,0.79
CCS(=O)(=O)NCc1cccn1Cc1cc(C)ccc1C,x,1.9
Cc1nc2scc(C)n2c(=O)c1S(=O)(=O)N1CCN(c2cccc(Cl)c2)CC1,-0.76,-0.25

# Random draw from the library, and some 0.94% of all compounds hit somewhere here.
